ClpP mod: qHTS Assay for Activators of ClpP. ATP-dependent Clp protease proteolytic subunit (Bacillus subtilis (strain 168)), P80244. purified B. subtilis ClpP, FRET peptide cleavage, 20 min. Potency, µM (top dose mostly 57.5 µM), inactives show at the highest dose activity change, negative = active. 1.9% of 340,000 active. AID 651965, 2013; active = well fitted falling curve with a large enough effect; inconclusive = small, poorly fitted or top-dose-only effect; inactive = no such curve, though single readings can be large or run the other way; note: potency is the fitted concentration of half-maximal effect; the source files actives as falling curves though it sought activators and does not explain the sign; nearly all actives have a fitted effect of over 65% in size; many hits overshoot -100%
Target sequence (P80244 whole entry, looked up): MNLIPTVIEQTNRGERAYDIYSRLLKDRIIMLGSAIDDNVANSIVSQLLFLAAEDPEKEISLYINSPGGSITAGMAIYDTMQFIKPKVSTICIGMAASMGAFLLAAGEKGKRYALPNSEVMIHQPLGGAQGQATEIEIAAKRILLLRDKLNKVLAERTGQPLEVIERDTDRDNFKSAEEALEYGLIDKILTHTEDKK
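Purified B. subtilis ClpP, 10 microg/mL final in Tris/HCl pH8 with KCl, BSA, glycerol and Tween-20, cleaved an Abz/nitrotyrosine-quenched decapeptide. Fluorescence (ex 320, em 430) was read at 0 and 20 min at room temperature. Delta was normalized to 5.8 microM ADEP and DMSO/no-enzyme controls.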
Sfp PPTase inh: inhibitors of Bacillus subtilis Sfp phosphopantetheinyl transferase; Q9F4F7; Biochemical Sfp PPTase activity, qHTS; Potency, µM, inactives show max response, negative = inhibition, most hits filed as inhibitors; 3.5% of 310,000 active; active = well fitted inhibition curve with a large enough effect; inconclusive = small, poorly fitted or top-dose-only effect, or another doubt; inactive = no such curve, though single readings can be large or run the other way;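 note: the enzyme is Sfp with the accession as filed and its product quenches rhodamine fluorescence; potency is the fitted concentration of half-maximal effect; 0% = enzyme reaction without inhibitor and -100% = no enzyme wells; top concentration of the series not given in the record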
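Sfp 15 nM + cpd, 15 min RT; start w/ rhodamine-CoA 5 uM, BHQ-2-YbbR 12.5 uM (final); 50 mM Hepes pH 7.6, 10 mM MgCl2, 0.01% NP-40, 0.01% BSA; read 525/598 nm at 0 and 30 min.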
D2 agonist: agonists of human D2 dopamine receptor (beta-arrestin) | DiscoveRx PathHunter D2 beta-arrestin, luminescence, 90 min; 100% = 57 uM dopamine signal | activation, % (concentration not given with the values) | AID 624465 | P14416 | 0.084% of 360,000 active; in the data active = activation above about 40%; inconclusive = about 15% to 40%; inactive = below about 15%; note: compound concentration not given in the record; the text of the record calls up to 30% inactive
Target sequence (P14416 whole entry, looked up): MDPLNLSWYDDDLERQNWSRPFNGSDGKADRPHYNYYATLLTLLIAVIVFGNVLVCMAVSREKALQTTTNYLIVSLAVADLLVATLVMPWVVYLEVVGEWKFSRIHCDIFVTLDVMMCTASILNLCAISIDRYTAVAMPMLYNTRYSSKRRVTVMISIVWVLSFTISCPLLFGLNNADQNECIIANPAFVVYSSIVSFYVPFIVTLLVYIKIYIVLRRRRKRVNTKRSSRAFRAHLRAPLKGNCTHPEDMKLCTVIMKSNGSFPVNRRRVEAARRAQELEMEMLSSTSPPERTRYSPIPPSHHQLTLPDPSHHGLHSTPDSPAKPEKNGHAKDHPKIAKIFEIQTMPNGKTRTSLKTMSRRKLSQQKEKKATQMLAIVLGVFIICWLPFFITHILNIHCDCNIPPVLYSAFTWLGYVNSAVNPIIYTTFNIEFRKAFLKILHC
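Agonist mode: compounds alone added to overnight-plated D2 PathHunter cells for 90 min at 37 C, with 57 uM final dopamine (EC100) defining full response. Beta-arrestin recruitment detected by chemiluminescent reagent, read after 1 h at ambient temperature.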
gsp ag: agonists of gsp mutant (McCune-Albright syndrome). gsp mutant cells, cAMP HTRF, 30 min; control for the full effect not named in the record. Potency, µM (doses to about 76.9 µM), without a hit: at the highest dose activation (cAMP increase), actives largely listed as activators. 0.13% of 340,000 active. AID 624287; active = well fitted activation curve with a large enough effect; inconclusive = small, poorly fitted or top-dose-only effect, or another doubt; inactive = no such curve, though single readings can be large or run the other way; cell line not stated here;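 note: phosphodiesterase inhibitor Ro 20-1724 added with compounds to block cAMP breakdown; potency is the fitted concentration of half-maximal effect; nearly all actives have a fitted effect of over 60% in size; about a fifth of the inactives were tested at one dose only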
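Cells stably selected in G418 were plated at 2000/well, grown 16-24 hr, then given compounds in DMSO with the PDE inhibitor […] (300 uM solution added) for 30 min at 37C; cAMP was read by HTRF.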
PINK1 expr mod: modulators of PINK1 expression. 0.2% of 410,000 active. Potency, µM (series often up to 76.6 µM), for the others: top-dose activation (PINK1 increase), hits mostly activators. PINK1 immunofluorescence, high-content cytometry, 24 h; active = well fitted activation curve with a large enough effect; inconclusive = small, poorly fitted or top-dose-only effect; inactive = flat fitted curve, though single readings scatter; cell line not stated here;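 note: potency is the fitted concentration of half-maximal effect; % of control where 0% means no effect; nearly all actives have a fitted effect of over 65% in size; a mitochondrial uncoupler was the plate control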
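Stable cell line treated 24 h with compounds at 5 concentrations (CCCP controls), then fixed and immunostained for PINK1 plus nuclear and cell stains; PINK1 immunofluorescence quantified by laser-scanning microplate cytometry.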
Menin MLL FP FL: inhibitors of human menin-MLL interaction, wild-type MLL peptide. Fluorescence polarization, fluorescein-MLL peptide displacement from menin. FP activity change, % at 61.4 µM. 290,000 tested, under 10 active; inconclusive = falling polarisation curve, or a change in total fluorescence; inactive = total fluorescence flat and polarisation flat or rising; no compound was filed as active; the % refers to the polarisation; negative = inhibition;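 note: % of control where 0% means no effect; inhibitors lower the polarisation; unlabelled MLL peptide was the positive control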
gsp antagonist: antagonizes gsp, the McCune-Albright syndrome mutation | gsp-mutant cells, cAMP HTRF, 30 min; control for the full effect not named in the record | Potency, µM (titrated, usually from 76.9 µM), without a hit: at the highest dose activity change, negative = inhibition, actives largely listed as inhibitors | 0.4% of 340,000 active | AID 624288; active = falling curve of any shape with a large fitted effect; inconclusive = falling curve, mostly with a smaller effect; inactive = flat or rising curve; cell line not stated here;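 note: intracellular cAMP measured with PDE inhibitor Ro 20-1724 present during compound exposure; potency is the fitted concentration of half-maximal effect; % is set by controls: 0 for no effect and ±100 for the full control effect; nearly all actives have a fitted effect of over 65% in size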
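Measurement of cellular cAMP by homogeneous time-resolved fluorescence following a 30 min compound exposure at 37C. The PDE inhibitor […] was present throughout; the assay buffer was DPBS with 0.05% BSA and 0.005% Tween 20.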
Active calls of the source: *; ? = inconclusive; nt = not tested or not shown; & = joins results of further samples; [ ] = dose if it differs, or a comment. No enrichment for hits. About 5.1% of those tested had a hit in this group.

Fields – ClpP mod	Sfp PPTase inh	D2 agonist	gsp ag	PINK1 expr mod	Menin MLL FP FL	gsp antagonist
CN1CCC2(CC1)N=C(c1ccc(F)cc1)C(=S)N2C(=O)c1ccc(C(C)(C)C)cc1
    ?	50µM*	-2.0	?	-1.7%	2.3	-2%
C[C@H](O)CNC(=O)c1[nH]cnc1C(=O)N[C@@H](C)c1ccccc1
    -0.4%	nt	-5.8	4%	0.2%	nt	nt
O=C(CCS(=O)(=O)c1ccc(Br)cc1)N1CCCCCC1
    0.5%	12%	-2.4	-25%	0.6%	-0.1	1%
Cc1ccc(-c2nnc(NCCCO)c3ccccc23)cc1
    -1.7%	7%	-8.8	?	-0.2%	-1.8	-2%
COC(=O)c1ccc2c(c1)NC(=O)CS2
    nt	-12%	-2.2	-1%	-0.2%	-3.1	9%
CCCCc1nc2ccccc2c(=O)n1NC(=O)c1c(O)c2ccccc2n(C)c1=O
    nt	18%	-0.8	-15%	0.4%	-2.6	0%
O=C1CN(c2ccccc2)C(=S)N1C(=O)c1ccccc1
    nt	50µM*	-4.5	3%	?	0.2	-7%
COc1cccc(CNC(=O)COc2cc3c(c4oc(=O)cc(C)c24)CCC(C)(C)O3)c1
    4.5%	4%	5.1	nt	0.5%	-3.9	1%
O=C(NCC(c1cccnc1)N1CCN(c2ccccc2F)CC1)c1ccccc1 (stereo unspecified)
    0.5%	3%	2.4	-21%	0.6%	2.0	3%
N#C/C(=C/C1=C(N2CCOCC2)C(=C/c2cccc([N+](=O)[O-])c2)/CC1)C(=O)Nc1ccccc1F
    0.1%	nt	3.6	?	-0.7%	nt	-4%
CN1CC[C@]2(CCN3CCc4c(oc5ccccc45)[C@@H]3C2)N(C)C1=O
    -4.9%	nt	-3.9	nt	0.1%	nt	-6%
Cc1c(C(=O)NCc2ccccc2)sc(=O)n1Cc1ccccc1F
    -0.3%	nt	2.9	nt	-0.3%	nt	nt
CCN(CC)S(=O)(=O)c1ccc(Cl)c(NC(=S)NC(=O)C2CCCC2)c1
    -0.6%	nt	-12	-26%	?	nt	?
COc1ccc(NC(=O)N2CCCC(C(=O)NC(C)C)C2)cc1 (stereo unspecified)
    -3.1%	6%	-0.7	-5%	1.6%	-0.2	7%
O=C(NNC(=O)c1ccccc1[N+](=O)[O-])Nc1ccc(Cl)cc1
    nt	21%	-6.6	-1%[15.4 µM]	2.3%	-1.7	0%
COc1ccccc1N(CC(=O)Nc1cc(C)on1)S(=O)(=O)c1ccc(Cl)cc1
    2.1%	10%	-3.1	4%	1.1%	-1.4	-23%
CCc1ccc(/C=C2\SC(=S)N(CCCC(=O)NC3=NCCS3)C2=O)cc1
    -3.2%	nt	-5.2	-57%	-0.3%	nt	nt
COCCN(C(=O)COC(=O)COc1ccc2c(c1)CCC2)c1c(N)n(Cc2ccccc2)c(=O)[nH]c1=O
    0.7%	nt	-0.7	-43%[inhibitor]	0.2%	nt	5%
CCC1CCCCN1C(=O)COC(=O)CSc1ccc(C(N)=O)cc1[N+](=O)[O-] (stereo unspecified)
    -0.4%	nt	-2.2	?	-0.5%	nt	-1%
CCOC(=O)c1cnc2c(C(F)(F)F)cccc2c1N1CCN(C)CC1
    nt	-8%	0.5	-48%[inhibitor][15.4 µM]	-1.9%	0.5	-5%
Cc1ccccc1NC(=O)CC1SC(=Nc2ccc(O)cc2)NC1=O (stereo unspecified)
    nt	14%	-2.2	-7%[15.4 µM]	-1.1%	-1.3	2%
Cc1cc(C(C)(C)C)cc(S(=O)(=O)Nc2ccc(O)c(C(=O)O)c2)c1C
    -27%	89µM*	-2.8	8%	4.8%[38.3 µM]	-1.0	?
CC(C)Cn1c(SCC(=O)NC2CCCc3ccccc32)nc(O)cc1=O (stereo unspecified)
    0.9%	3%	-3.7	0%	-0.5%	-0.2	-4%
CC(Cc1ccccn1)NC(=O)CCc1nnc(C2CCCCC2)o1 (stereo unspecified)
    nt	18%	-0.4	-20%[15.4 µM]	-0.5%	-0.3	8%
O=c1cc(-c2ccccc2)cc(-c2ccccc2)n1CCCO
    -12%	nt	-0.8	nt	2.7%	nt	-5%
O=C(CSc1nnc(Cc2cccs2)n1Cc1ccco1)Nc1cccc(Cl)c1
    -0.2%	-90%	-1.3	-1%	-7.6%[38.3 µM]	4.9	-13%
CCN(CC)S(=O)(=O)c1cccc(-c2nnc(SCC(=O)NC3CCCCCC3)n2N)c1
    -0.2%	2%	-2.6	8%	5.8%[38.3 µM]	1.1	-1%
COC(=O)C12CC3CC(C1)CC(n1cnc(Cl)n1)(C3)C2
    -0.6%	-5%	-4.3	?	-2.6%	3.3	4%
COc1ccc(C(CNC(=O)C(C)(C)Oc2ccc(Cl)cc2)N2CCCC2)cc1 (stereo unspecified)
    -3.9%	nt	-0.7	-7%	0.7%	nt	6%
Cc1c(O)nc(SCC(=O)Nc2cccc(C(F)(F)F)c2)n(-c2ccccc2)c1=O
    0.0%	-12%	-4.2	0%	1.5%	nt	8%
COC(=O)c1sc(NC(=O)COc2cccc3ccccc23)nc1C
    3.3%	20%	9.3	4%	9.0%	1.6	11%
Cc1c(C)c2ccc(OCC(=O)Nc3ccccn3)c(C)c2oc1=O
    3.9%	8%	-1.3	8%	7.8%	-1.5	3%
CCc1ccc(NS(=O)(=O)c2ccc3[nH]cc(C(=O)N4CCCCC4)c(=O)c3c2)cc1
    -14%	12%	-0.4	15%	-0.9%	-0.3	9%
COc1ccc(C(=O)/C=C/c2ccc(C)cc2)c(OC(=O)c2ccc([N+](=O)[O-])cc2)c1
    2.9%	-1%	1.3	10%	4.6%	-0.1	-6%
O=C(O)CCc1nn2c3ccccc3n(CCN3CCCCC3)c2nc1=O
    28µM*	30%	-0.1	4%	-2.3%[38.3 µM]	-0.4	12%
CC1Cc2ccccc2N1S(=O)(=O)c1cccc(C(=O)OCC(=O)NCc2ccco2)c1 (stereo unspecified)
    nt	9%	2.5	4%[15.4 µM]	-0.5%	3.5	-19%
COC(=O)c1ccc(NC(=O)COC(=O)c2nc3nccc(C)n3n2)cc1
    nt	-4%	-4.0	21%[15.4 µM]	-0.5%	6.7	0%
COc1ccc(N(CC(=O)NCc2ccc3c(c2)OCO3)C(=O)CCC(=O)Nc2ccccn2)cc1
    nt	-2%	-2.0	-13%[15.4 µM]	-0.4%	-1.6	2%
COc1ccc(C/C(N)=N/O)cc1
    -0.9%	11%	-2.8	19%	0.8%	-0.6	2%
Cn1cc(C(CO)Cc2ccccc2)c2ccccc21 (stereo unspecified)
    -18%	nt	-3.4	1%	2.1%	nt	-2%
OCCNc1nc(-c2cccnc2)nc2ccccc12
    -1.8%	15%	-0.3	29%	2.0%[38.3 µM]	0.2	6%
CC(C)C[C@H](NC(=O)[C@H]1N2C(=O)c3ccccc3C2SC1(C)C)C(=O)N[C@@H](Cc1ccccc1)C(=O)O (stereo partly specified)
    -0.8%	18%	-2.5	nt	-0.4%	-5.5	8%
Cc1ccccc1CN1C2=NCCN2c2ccccc21
    0.6%	8%	-2.3	?	1.9%	-1.5	4%
Cc1cc(F)ccc1S(=O)(=O)Nc1ccccc1C(=O)Nc1ncn[nH]1
    32µM*	1%	-3.6	-21%	1.8%	6.2	-12%
CC(OC(=O)Cn1[nH]c(=O)c2ccccc2c1=O)C(=O)c1ccccc1 (stereo unspecified)
    7.1%	11%	-1.4	16%	-1.3%	3.0	1%
CCOCCn1c(CN2CCCCC2C)nc2c1c(=O)n(C)c(=O)n2C (stereo unspecified)
    0.5%	6%	-7.6	?	2.8%	-0.2	4%
O=C(CSc1nnc(-c2ccncc2)o1)NC1C2CC3CC(C2)CC1C3 (stereo unspecified)
    1.6%	-12%	-3.9	2%[15.4 µM]	2.3%	-1.2	-9%
CCCCCCCC(=O)N/N=C(\C)c1cccnc1
    -1.9%	0%	-2.1	-35%[inhibitor]	-0.8%	4.6	20%
CCc1ccc(OCCOC(=O)Nc2ccccc2)cc1
    -4.3%	7%	4.5	15%	6.1%	-1.4	7%
CCOc1ccc2nc(Cl)c(/C=C/C(=O)c3ccco3)cc2c1
    -5.9%	?	-0.8	7%	-2.7%	6.5	-3%
CC1CCCCC1NC(=O)COC(=O)/C=C/c1ccc2c(c1)OCO2 (stereo unspecified)
    1.0%	?	-7.4	-1%[15.4 µM]	-1.4%	-3.5	8%
O=C(Nc1nnc(S(=O)(=O)N2CCOCC2)s1)c1ccccc1F
    1.1%&-1.5%	23%	-1.3	7%	0.4%&-0.4%	nt	-21%
CCOc1ccc(N=C2NN=C(c3cc(C)n(CC4CCCO4)c3C)CS2)cc1 (stereo unspecified)
    -0.5%	56µM*	-2.9	6%[15.4 µM]	3.2%	1.3	6%
O=C(CCNC(=O)C1CCN(S(=O)(=O)c2ccc(F)cc2)CC1)NCc1cccnc1
    -1.3%	15%	2.1	?	2.5%	4.7	15%
O=S(=O)(Nc1cccc2c1CCCC2)c1ccc(Cl)cc1
    -0.5%	-13%	-1.4	16%	7.2%	1.0	5%
Cn1ncc(Cl)c1C(=O)N1CCN(C(=O)c2ccco2)CC1
    -0.9%	16%	-5.4	?	0.8%	-3.3	7%
Cc1noc(C)c1C(=O)N1CCC2(CC1)CCN(c1ccncc1)CC2
    nt	7%	nt	nt	1.3%	-10	nt
Cn1c(NC(=O)C2CCCO2)cc(=O)n(C)c1=O (stereo unspecified)
    -0.3%	16%	-1.1	-2%	-0.2%[38.3 µM]	-1.1	4%
O=C(OCC(=O)c1c[nH]c2ccccc12)c1ccc([N+](=O)[O-])s1
    nt	2%	?	-3%	-0.5%	0.8	-9%
O=C(c1ccc(F)cc1)c1c[nH]c(C(=O)NCCCN2CCOCC2)c1
    -0.1%	26%	-0.7	-24%	-2.8%	-1.2	11%
Cc1cccc(NC(=O)CNC(=O)CSc2nc(N)cc(N)n2)c1C
    nt	nt	-1.0	-16%[15.4 µM]	-0.7%	nt	9%
